TRPML1 agonist = activates the human TRPML1 channel; Q9GZU1; TRPML1-expressing cells, Ca2+ dye fluorescence, FDSS; host cell line not named in the record; reference of the full effect not given here; activation, % (no concentration beside the values); 0.12% of 410,000 active; in the data active = activation above about 50%; inconclusive = about 30% to 50%; inactive = below about 30%; further: 0% is about no effect; the text of the record puts the active cut at 80%
Target sequence (Q9GZU1 whole entry, looked up): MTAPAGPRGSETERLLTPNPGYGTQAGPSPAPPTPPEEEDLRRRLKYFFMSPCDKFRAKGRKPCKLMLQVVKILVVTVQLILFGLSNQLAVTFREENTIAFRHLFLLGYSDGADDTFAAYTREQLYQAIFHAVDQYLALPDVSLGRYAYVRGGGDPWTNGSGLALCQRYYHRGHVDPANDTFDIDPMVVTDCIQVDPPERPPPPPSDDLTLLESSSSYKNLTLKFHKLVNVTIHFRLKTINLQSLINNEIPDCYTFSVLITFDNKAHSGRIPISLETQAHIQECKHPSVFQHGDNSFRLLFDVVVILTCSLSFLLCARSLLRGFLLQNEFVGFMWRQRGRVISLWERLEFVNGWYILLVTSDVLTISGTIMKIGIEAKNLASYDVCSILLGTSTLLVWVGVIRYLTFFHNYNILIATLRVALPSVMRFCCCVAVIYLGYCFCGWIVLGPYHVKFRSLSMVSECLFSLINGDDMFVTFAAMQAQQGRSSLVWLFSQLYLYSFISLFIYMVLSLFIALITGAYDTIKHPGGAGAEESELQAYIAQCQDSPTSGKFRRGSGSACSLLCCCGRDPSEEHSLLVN
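Tet-induced TRPML1-DL cells, 1,500 per well, cultured overnight, were loaded with a no-wash Ca2+ dye for 45–90 min. Calcium fluorescence was recorded on the FDSS for 110 s after compound addition, before the EC80 agonist (4 uM 54-4) was added.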
Six1-Eya2 blk = blocks human Six1 binding to Eya2; Q15475+O00167; AlphaScreen GST-Six1/His-Eya2 binding, biochemical; active compounds read low; control for the full effect not named in the record; activity change, % (no concentration beside the values); 0.56% of 360,000 active; AID 651725; in the data active = activity change below about -65%; inconclusive = about -30% to -65%; inactive = above about -30%; further: on the % scale 0 is the no-effect control and ±100 the full control effect
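Homogeneous AlphaScreen proximity assay pairing GST-Six1 with His-tagged Eya2 (added as 5X mix: 250 nM and 500 nM) in 50 mM Tris pH 8.0, 300 mM NaCl, 1 mM TCEP. Glutathione donor and nickel acceptor beads; 1 h, 37 °C, dark.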
D2 PAM = positive allosteric modulators of human D2 dopamine receptor | P14416 | DiscoveRx D2 beta-arrestin cells, luminescence, 90 min; 100% = 57 uM dopamine signal | potentiation, % (concentration not given with the values) | 0.23% of 360,000 active | AID 624464; active = potentiation of 50% or more; inconclusive = 30% to 50%; inactive = 30% or less;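 further: compound concentration not given in the record; tested on top of an EC20 dose of dopamine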
Target sequence (P14416 whole entry, looked up): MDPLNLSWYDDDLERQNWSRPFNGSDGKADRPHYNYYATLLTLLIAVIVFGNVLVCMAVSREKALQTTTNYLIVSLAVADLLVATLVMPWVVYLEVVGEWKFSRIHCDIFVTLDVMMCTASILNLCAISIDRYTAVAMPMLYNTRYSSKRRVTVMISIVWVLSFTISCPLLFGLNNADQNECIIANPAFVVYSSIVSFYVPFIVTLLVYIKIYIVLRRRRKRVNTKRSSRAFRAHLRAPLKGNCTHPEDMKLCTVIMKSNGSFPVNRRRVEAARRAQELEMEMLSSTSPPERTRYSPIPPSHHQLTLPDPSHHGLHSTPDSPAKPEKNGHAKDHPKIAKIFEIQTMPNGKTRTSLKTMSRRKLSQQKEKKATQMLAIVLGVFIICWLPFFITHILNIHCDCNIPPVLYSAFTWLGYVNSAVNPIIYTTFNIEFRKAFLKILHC
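D2 cells co-treated with compound plus 50 nM dopamine (EC20) for 90 min at 37 deg C to detect potentiation. Beta-arrestin recruitment was read as enzyme-fragment luminescence after 1 h at ambient temperature. Full response was set by 57 uM dopamine.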
D2 ag = agonists of human D2 dopamine receptor (beta-arrestin); DiscoveRx PathHunter D2 beta-arrestin, luminescence, 90 min; 100% = 57 uM dopamine signal; activation, % (test concentration not listed); 0.084% of 360,000 active; AID 624465; in the data active = activation above about 40%; inconclusive = about 15% to 40%; inactive = below about 15%; further: compound concentration not given in the record; the text of the record calls up to 30% inactive
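DiscoveRx PathHunter D2 beta-arrestin cells (2,100/well) attached overnight, then compound-stimulated 90 min at 37 C in HBSS/10 mM HEPES/0.1% Tween-20 buffer; beta-galactosidase complementation read by luminescence after 1 h at ambient temperature. Dopamine 57 uM final (EC100) as control.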
CtBP-E1A inh = inhibitors of CtBP/E1A interaction | AlphaScreen GST-E1A/His-CtBP binding, 1536-well; active compounds read low; control for the full effect not named in the record | activity change, % (test concentration not listed) | 0.49% of 340,000 active; in the data active means activity change below about -65%; inconclusive means about -30% to -65%; inactive means above about -30%; further: on the % scale 0 is the no-effect control and ±100 the full control effect
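GST-E1A and His-tagged CtBP (125 nM each as 5X stock) were preincubated with pin-transferred compound for 2 h at 37 °C in the dark, then glutathione donor and nickel acceptor beads were added for 1 h before AlphaScreen reading.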
PINK1 modulator = changes PINK1 expression. PINK1 immunofluorescence, high-content cytometry, 24 h. Potency, µM (highest dose often 76.6 µM), inactives show at the top dose activation (PINK1 increase), hits mostly activators. 0.2% of 410,000 active. AID 624263; active = well fitted activation curve with a large enough effect; inconclusive = small, poorly fitted or top-dose-only effect; inactive = flat fitted curve, though single readings scatter; cell line not stated here;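 further: potency means the concentration at half of the fitted maximal effect; % of control where 0% means no effect; nearly all actives have a fitted effect of over 65% in size; a mitochondrial uncoupler was the plate control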
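Fluorescence from anti-PINK1 antibody, together with nuclear and cell stains, was scanned on a laser-scanning cytometer. Before staining, stable-line cells were incubated 24 hours with compounds at 5 concentrations; primary antibody 12 h at 10 degrees C.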
Active calls of the source: *; ? = inconclusive; . = no result given; & = joins results of further samples; [ ] = another dose, or the depositor's remark. This is a subset, so the mix of outcomes need not match the whole.

The first 9 entries as a preview:
SMILES | TRPML1 agonist | Six1-Eya2 blk | D2 PAM | D2 ag | CtBP-E1A inh | PINK1 modulator
C[C@]12CCC3C(CC[C@H]4C[C@@H](O)CC[C@]34C)C1CC[C@@H]2N (stereo partly specified) | -0.1 | 2 | -8 | -1.8 | 2 | -0.1%
Oc1cc2c(cc1CN1CCN(c3ccccc3F)CC1)OCO2 | 1.2 | -27 | -10 | 14 | -17 | -2.4%
O=C(Cc1ccccc1)OCCN1CCOCC1 | 0.0 | 10 | -11 | -1.5 | 1 | 1.1%
O=C1/C(=C/c2ccccc2Cl)N2CCC1CC2 | . | 0 | -5 | -3.6 | 7 | -0.1%
O=C1NC(=O)N(Cc2ccccc2)C(=O)/C1=C/c1cnc(-c2ccccc2)nc1 | -1.0 | -1 | -1 | -3.6 | 3 | 4.7%
CC1(C)CC(n2[nH]c(=O)c3c2NC(=O)CSC3c2ccc(F)cc2)CCO1 (stereo unspecified) | -0.4 | -2 | 6 | -3.9 | 2 | 0.5%
CP(=O)(O)CN1CCCCC1 | 0.1 | 13 | -5 | -4.3 | . | 1.0%
COC(=O)Cn1cc(/C=C2\C(=O)NC(=O)N(c3ccccc3)C2=O)c2ccccc21 | 0.2 | 6 | -2 | -4.1 | -3 | ?
C/C(=N\NC(=O)c1ccccc1Cl)c1c(O)n(C2CCCCC2)c(=O)[nH]c1=O | -0.8 | -2 | 7 | -0.6 | -1 | 3.2%

All compounds of this part, from the start:
SMILES | TRPML1 agonist | Six1-Eya2 blk | D2 PAM | D2 ag | CtBP-E1A inh | PINK1 modulator
C[C@]12CCC3C(CC[C@H]4C[C@@H](O)CC[C@]34C)C1CC[C@@H]2N (stereo partly specified) | -0.1 | 2 | -8 | -1.8 | 2 | -0.1%
Oc1cc2c(cc1CN1CCN(c3ccccc3F)CC1)OCO2 | 1.2 | -27 | -10 | 14 | -17 | -2.4%
O=C(Cc1ccccc1)OCCN1CCOCC1 | 0.0 | 10 | -11 | -1.5 | 1 | 1.1%
O=C1/C(=C/c2ccccc2Cl)N2CCC1CC2 | . | 0 | -5 | -3.6 | 7 | -0.1%
O=C1NC(=O)N(Cc2ccccc2)C(=O)/C1=C/c1cnc(-c2ccccc2)nc1 | -1.0 | -1 | -1 | -3.6 | 3 | 4.7%
CC1(C)CC(n2[nH]c(=O)c3c2NC(=O)CSC3c2ccc(F)cc2)CCO1 (stereo unspecified) | -0.4 | -2 | 6 | -3.9 | 2 | 0.5%
CP(=O)(O)CN1CCCCC1 | 0.1 | 13 | -5 | -4.3 | . | 1.0%
COC(=O)Cn1cc(/C=C2\C(=O)NC(=O)N(c3ccccc3)C2=O)c2ccccc21 | 0.2 | 6 | -2 | -4.1 | -3 | ?
C/C(=N\NC(=O)c1ccccc1Cl)c1c(O)n(C2CCCCC2)c(=O)[nH]c1=O | -0.8 | -2 | 7 | -0.6 | -1 | 3.2%
CCC(=Nc1ccc(OC)cc1OC)c1c(O)n(C2CCCCC2)c(=O)[nH]c1=O | 0.1 | -13 | 12 | -0.7 | -11 | 6.6%
Brc1ccc(CN2CCNCC2)s1 | 1.3 | -4 | -60 | 1.1 | -5 | 2.9%
C/C(=N\N1CCCCC1c1cccnc1)c1c(O)n(C2CCCCC2)c(=S)[nH]c1=O (stereo unspecified) | 0.0 | -18 | 16 | 3.6 | 0 | -0.1%
COc1ccc(CNC(=O)/C=C/c2ccc3[nH]cc(CCN(C)C)c3c2)cc1 | -1.0&-0.7 | -3 | 11 | -0.9 | 3 | 1.5%&-0.7%
O=P(NCc1ccccc1)(Oc1ccccc1)Oc1ccccc1 | 1.8 | -8 | 6 | 6.1 | 0 | 0.8%
CC12CC[C@H]3[C@@H](CCC4(O)C[C@H](O)CCC34/C=N/NC(=O)c3ccc(O)cc3)C1(O)CCC2C1=CC(=O)OC1 (stereo partly specified) | 0.7 | -2 | -4 | -0.9 | -1 | 1.9%
CCn1c(=O)cc(OCC(=O)N2CCN(Cc3ccc4c(c3)OCO4)CC2)c2ccccc21 | -0.1 | 8 | -20 | -1.5 | -1 | .
CC12CCC3C(CCCC4CC(=O)CCC43C)C1CCC2O (stereo unspecified) | 2.2 | -3 | -3 | 4.2 | 14 | -2.0%
NC1CCCCC1N=Cc1c(O)n(Cc2ccc(F)cc2)c(=O)[nH]c1=O (stereo unspecified) | -0.5 | -12 | 2 | -0.4 | -6 | 0.5%
O=c1cccc2n1CC1CC2CN(S(=O)(=O)c2ccccc2)C1 (stereo unspecified) | 0.7 | 2 | 3 | 1.9 | 5 | -1.5%[38.3 µM]
O=C(CN1CC=C(c2ccccc2)CC1)NC(=O)NCc1ccco1 | 0.7 | -4 | -9 | 5.9 | -1 | -1.7%
O=C(c1cccc(C(F)(F)F)c1)C1CCCN(Cc2ccccc2O)C1 (stereo unspecified) | 0.4 | -1 | -11 | -3.0 | 0 | -2.3%
COc1cc(C)cc(CN2CC=C(c3ccccc3)CC2)c1O | 1.2 | -19 | -21 | 8.1 | . | -0.5%
Clc1ccc(CN2CCNCC2)cc1 | 0.4 | 3 | 5 | -0.6 | 6 | -0.7%
CCC1(c2ccc(C)cc2)C(=O)NC(=S)NC1=O | -0.4 | 2 | -12 | -5.7 | 9 | 0.9%
COC(=O)C(c1ccccc1)N1CCCCCC1 (stereo unspecified) | 0.4 | -3 | 0 | -0.7 | 0 | 6.1%
COc1ccc(C(=O)NC(=S)N2C[C@H]3C[C@H](C2)c2cccc(=O)n2C3)cc1OC | . | 18 | -22 | -4.5 | 32 | 1.0%
Nc1c(C(=O)OC2CCCCC2)c2nc3ccccc3nc2n1CC1CCCO1 (stereo unspecified) | 1.0 | -1 | -2 | -0.8 | 3 | 4.0%[38.3 µM]
O=C1NC(=O)N(Cc2ccco2)C(=O)/C1=C/c1cccn1CCOc1ccccc1Cl | 0.2 | -23 | 1 | -0.7 | -4 | 5.9%
N#Cc1ccccc1Cn1cc(C(=O)c2ccco2)c2ccccc21 | 4.2 | -28 | -6 | -3.1 | ? | 2.8%
CCC(CC)C1C(C#N)=C(N)Oc2c1c(=O)oc1ccccc21 (stereo unspecified) | -0.8 | -2 | -17 | -3.0 | -2 | 6.6%
CCOC(=O)C1(CCc2ccccc2)CCN(CC(O)CO)CC1 (stereo unspecified) | -0.3 | -6 | -26 | -0.4 | . | -0.8%
CC(O)(CS(=O)(=O)c1ccccc1)C(=O)Nc1cccc(C(F)(F)F)c1 (stereo unspecified) | 0.0 | 6 | -5 | -1.8 | 3 | -2.6%[38.3 µM]
CC12CCCCC1=[N+]([O-])CN2O (stereo unspecified) | 0.2 | -1 | -23 | -0.2 | 5 | 5.1%
COC(=O)C1=C(c2cccc(OCc3ccccc3)c2)C[C@@H]2CC[C@H]1N2C(=O)NCc1ccc([N+](=O)[O-])cc1 | 0.1 | -21 | -5 | 0.9 | -9 | 0.7%
CCCCn1c(O)c(/C=N/N2CCCCC2c2cccnc2)c(=O)[nH]c1=S (stereo unspecified) | -0.5 | -3 | -5 | -2.0 | 0 | 8.9%
CCN(CC)S(=O)(=O)N1CCC(C(=O)N2CCC3(CC2)OCCO3)CC1 | 3.8 | 7 | -17 | -4.2 | . | -1.1%
CCOC(=O)[C@@]1(C#N)[C@@H]2C=CC(C(N)=O)=CN2[C@@H](C(N)=O)[C@@H]1c1cccc(Cl)c1 | 2.5 | -12 | 23 | 7.4 | -12 | 5.5%
COC(=O)C1=C(c2ccc(Cl)c(C(F)(F)F)c2)C[C@@H]2CC[C@H]1N2C(=O)NCc1ccco1 | 1.2 | -11 | -17 | -4.9 | -16 | 1.5%
Cc1ccc(C)c(NC2=NCCCS2)c1 | -1.0 | 0 | -12 | -1.1 | -1 | 2.8%
COc1cc(CN=Cc2c(O)n(C(C)(C)C)c(=O)[nH]c2=O)cc(OC)c1 | 0.1 | 6 | -6 | 1.5 | 11 | -1.6%
O=C(CN1CCOCC1)c1ccc2cc[nH]c2c1 | 0.0 | 3 | -13 | -5.2 | 1 | 0.3%
N#CC1c2ccccc2-n2nncc2CN1S(=O)(=O)c1cc(Cl)cc(Cl)c1 (stereo unspecified) | 0.4 | -1 | -6 | 0.8 | 8 | 1.3%
CC1CN(CC(=O)c2ccccc2Cl)CC(C)O1 (stereo unspecified) | -0.1 | 4 | -16 | -2.3 | 1 | -0.4%
N#Cc1ncc(N=Cc2ccc(N(CCCl)CCCl)cc2)s1 | -0.6 | 4 | -15 | -2.8 | 9 | 0.7%
CCCCOC(=O)COc1cc(C)cc2oc(=O)c3c(c12)CCC3 | 1.6 | 0 | 7 | 3.4 | 5 | 17%
Cc1ccc(S(=O)(=O)N2CCCC(C(=O)N3CCC4(CC3)OCCO4)C2)cc1 (stereo unspecified) | -0.2 | 1 | -8 | -1.2 | 10 | -2.0%[38.3 µM]
CNC(=O)N(C)c1nnc(C(C)(C)C)s1 | 0.2 | 0 | 2 | -0.3 | 3 | 4.7%[38.3 µM]
CCN(CC)C(=O)c1ccc(NC(=O)Cn2nc(C)c3ccccc3c2=O)cc1 | -1.4 | 2 | -6 | 0.9 | -8 | -3.2%
CC(C)(C)n1cccc1/C=C1\C(=O)NC(=O)N(c2ccccc2)C1=O | -1.3 | 22 | -11 | -4.1 | 29 | 0.0%
COc1cc(C(=O)OC2C[C@H]3CC[C@@H](C2)N3)ccc1O (stereo partly specified) | 1.1 | 1 | -7 | -3.0 | . | 0.3%
CSc1ccc(CNC2CN3CCC2CC3)cc1 (stereo unspecified) | -0.1 | 4 | -4 | 0.0 | 13 | .
COC(=O)C1=C(c2ccc(F)cc2F)C[C@@H]2CC[C@H]1N2C(=O)NC(C)C | -0.2 | -3 | -8 | -1.9 | . | 3.7%
COc1ccc(-n2nnnc2C(c2cccs2)N2CCC3(CC2)C(=O)NCN3c2ccccc2)cc1 (stereo unspecified) | -0.7 | -22 | -6 | -1.6 | -15 | 1.7%
Cc1ccc(CN2CCCN(Cc3ccc(C)cc3)S2(=O)=O)cc1 | 3.0 | 22 | -5 | 0.6 | 44 | 3.9%
CN1C(=O)C(Cc2nc3ccccc3c(=O)n2-c2ccccc2)c2ccccc21 (stereo unspecified) | -1.1 | -6 | -8 | -1.7 | 2 | 2.4%
O=C1C2C3CCC(O3)C2C(=O)N1c1cccc(F)c1 (stereo unspecified) | -0.8 | 27 | -18 | -0.2 | . | 1.2%
Cc1cc(OCC(=O)NC(Cc2ccc(Cl)cc2)C(=O)O)c2c3c(c(=O)oc2c1)CCCC3 (stereo unspecified) | . | -7 | -7 | 3.7 | -6 | -0.1%
COC(=O)C1=C(c2ccc(OCc3ccccc3)cc2)C[C@@H]2CC[C@H]1N2C(=O)NC1CCN(Cc2ccccc2)CC1 | 0.2 | -22 | -103 | 2.1 | -2 | 1.1%
